ClpP mod: qHTS Assay for Activators of ClpP; ATP-dependent Clp protease proteolytic subunit (Bacillus subtilis (strain 168)), P80244; purified B. subtilis ClpP, FRET peptide cleavage, 20 min; Potency, µM (highest dose often 57.5 µM), inactives show at the top dose activity change, negative = active; 1.9% of 340,000 active; AID 651965, 2013; active = well fitted falling curve with a large enough effect; inconclusive = small, poorly fitted or top-dose-only effect; inactive = no such curve, though single readings can be large or run the other way; further: potency means the concentration at half of the fitted maximal effect; the source files actives as falling curves though it sought activators and does not explain the sign; nearly all actives have a fitted effect of over 65% in size; many hits overshoot -100%
Target sequence (P80244 whole entry, looked up): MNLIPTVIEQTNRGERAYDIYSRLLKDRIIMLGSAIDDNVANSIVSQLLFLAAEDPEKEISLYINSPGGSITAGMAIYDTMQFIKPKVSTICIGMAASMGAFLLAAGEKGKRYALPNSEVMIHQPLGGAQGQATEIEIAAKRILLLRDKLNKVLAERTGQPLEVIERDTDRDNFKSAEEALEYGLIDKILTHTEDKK
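Buffer: 100 mM Tris/HCl pH8, 100 mM KCl, 0.05% low protease BSA, 2.5% glycerol, 0.01% Tween-20. ClpP 10 microg/mL final; 20 min RT; delta FRET normalized to ADEP and DMSO controls.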
Menin MLL FP FL: displaces fluorescein MLL peptide from human menin; Fluorescence polarization, fluorescein-MLL peptide displacement from menin; FP activity change, % at 61.4 µM; 290,000 tested, under 10 active; AID 1766; inconclusive = falling polarisation curve, or a change in total fluorescence; inactive = total fluorescence flat and polarisation flat or rising; no compound was filed as active; the % refers to the polarisation; negative = inhibition;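 further: % of control where 0% means no effect; inhibitors lower the polarisation; unlabelled MLL peptide was the positive control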
gsp agonist: activates gsp, the McCune-Albright syndrome mutation | 0.13% of 340,000 active | Potency, µM (titrated, usually from 76.9 µM), without a hit: at the top dose activation (cAMP increase), hits mostly activators | gsp mutant cells, cAMP HTRF, 30 min; control for the full effect not named in the record; active = well fitted activation curve with a large enough effect; inconclusive = small, poorly fitted or top-dose-only effect, or another doubt; inactive = no such curve, though single readings can be large or run the other way; cell line not stated here;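 further: phosphodiesterase inhibitor Ro 20-1724 added with compounds to block cAMP breakdown; potency means the concentration at half of the fitted maximal effect; nearly all actives have a fitted effect of over 60% in size; about a fifth of the inactives were tested at one dose only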
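Cells stably selected in G418 were plated at 2000/well, grown 16-24 hr, then given compounds in DMSO with the PDE inhibitor […] (300 uM solution added) for 30 min at 37C; cAMP was read by HTRF.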
TRPML1 ag: activates the human TRPML1 channel | TRPML1-expressing cells, Ca2+ dye fluorescence, FDSS; host cell line not named in the record; reference of the full effect not given here | activation, % (concentration not given with the values) | 0.12% of 410,000 active | AID 624414; in the data active = activation above about 50%; inconclusive = about 30% to 50%; inactive = below about 30%; further: 0% is about no effect; the text of the record puts the active cut at 80%
Target sequence (Q9GZU1 whole entry, looked up): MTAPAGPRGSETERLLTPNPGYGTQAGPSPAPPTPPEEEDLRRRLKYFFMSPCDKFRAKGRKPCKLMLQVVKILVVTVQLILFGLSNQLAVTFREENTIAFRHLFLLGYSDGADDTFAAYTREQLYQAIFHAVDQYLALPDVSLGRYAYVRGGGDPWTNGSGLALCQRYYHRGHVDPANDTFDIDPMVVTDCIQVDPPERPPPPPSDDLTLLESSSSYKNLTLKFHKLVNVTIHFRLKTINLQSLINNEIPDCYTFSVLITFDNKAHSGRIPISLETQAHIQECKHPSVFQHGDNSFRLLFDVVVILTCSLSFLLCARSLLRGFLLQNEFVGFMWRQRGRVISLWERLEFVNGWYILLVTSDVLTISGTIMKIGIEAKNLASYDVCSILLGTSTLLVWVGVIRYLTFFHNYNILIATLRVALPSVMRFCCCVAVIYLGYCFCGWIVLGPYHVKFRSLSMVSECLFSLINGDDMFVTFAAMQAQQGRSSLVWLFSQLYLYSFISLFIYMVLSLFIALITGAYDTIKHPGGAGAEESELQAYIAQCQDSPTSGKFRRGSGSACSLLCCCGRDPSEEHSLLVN
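Tetracycline-induced TRPML1-DL cells are seeded and incubated overnight before loading with a no-wash Ca2+ dye and quencher. Agonist activity is taken from the 110 s fluorescence read following compound pin-transfer on an FDSS, before EC80 54-4 challenge.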
gsp antag: antagonists of gsp mutant (McCune-Albright syndrome) | gsp-mutant cells, cAMP HTRF, 30 min; control for the full effect not named in the record | Potency, µM (series often up to 76.9 µM), for the others: at the top dose activity change, negative = inhibition, hits mostly inhibitors | 0.4% of 340,000 active | AID 624288; active = falling curve of any shape with a large fitted effect; inconclusive = falling curve, mostly with a smaller effect; inactive = flat or rising curve; cell line not stated here;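 further: intracellular cAMP measured with PDE inhibitor Ro 20-1724 present during compound exposure; potency means the concentration at half of the fitted maximal effect; on the % scale 0 is the no-effect control and ±100 the full control effect; nearly all actives have a fitted effect of over 65% in size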
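Cells, 2000/well, grown 16–24 h in DMEM 10% FBS with 0.5 mg/ml G418, then compounds plus […] (300 uM addition stock), 30 min at 37C. cAMP read by HTRF (cAMP-d2 and anti-cAMP antibody-K in lysis buffer) after 30 min RT.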
TRPML1 blocker: inhibitors of human TRPML1 channel; Q9GZU1; TRPML1-inducible cells, Ca2+ dye fluorescence, FDSS; active compounds read low; inhibition of EC80 agonist-evoked calcium signal; activity change, negative = inhibition, % (no concentration beside the values); 0.02% of 390,000 active; in the data active means activity change below about -50%; inconclusive means about -30% to -50%; inactive means above about -30%;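 further: stimulus is agonist 54-4 at its EC80 concentration; on the % scale 0 is the no-effect control and ±100 the full control effect; compound concentration not given in the record; the text of the record puts the active cut at -80%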
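TRPML1-DL cells, Tet-induced overnight (~16 h, 37 °C) at 1,500 cells/well, were loaded with Ca8 no-wash dye plus quencher for 45-90 min at room temperature. Compounds were pinned during FDSS kinetic reading; agonist 54-4 at EC80 (4 uM final) then added.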
* marks the source's active call; other numbers are inactive results; ? = inconclusive; nt = not tested or not shown; & = joins results of further samples; [ ] = dose if it differs, or a comment. Not a hit list; 2.1% or so of the library scored in one or more.

SMILES	ClpP mod	Menin MLL FP FL	gsp agonist	TRPML1 ag	gsp antag	TRPML1 blocker
CCCCNC(=O)Cc1c(OC)ccc2cc(Br)ccc12	0.6%	4.4	?	4.0	21.9%	11.8
CC(C)(O)c1cn(-c2nonc2N)nn1	-4.5%	2.6	20.3%	-0.4	6.9%	6.1
Oc1c(C(c2cccs2)N2CCN(c3ccccc3)CC2)sc2ncnn12 (configuration not stated)	1.0%	-5.1	6.4%	-0.3	1.2%	-11.3
O=C(CO/N=C/c1ccccc1)Nc1c(F)c(F)c(F)c(F)c1F	nt	-1.5	32.3%	-0.9	-1.1%	21.7
Cc1cccc(CS(=O)(=O)Cc2ccc(C(=O)NCCc3ccccc3)o2)c1	-1.7%&-0.1%	2.5	19.8%	0.8&0.2	3.1%	9.4&-13.7
COc1ccc(C2=NN(c3nc(-c4ccc(CNC(C)=O)cc4)cs3)C(c3ccco3)C2)cc1 (configuration not stated)	nt	19.1	10.7%	-0.4	2.0%	15.5
Cc1cc(C)cc(OCCSc2nc(-c3cccs3)nc3cc(=O)[nH]n23)c1	1.5%	nt	nt	-1.0	nt	11.9
CCC(=O)Nc1ccc(NC(=S)NC(=O)/C=C/c2ccco2)cc1	nt	13.7	0.7%	-0.4	-11.2%	1.8
O=C(NCc1ccc2c(c1)OCO2)c1ccc2c(c1)N(Cc1c(F)cccc1Cl)C(=O)CS2	14.1µM*	12.1	-0.2%[15.4 µM]	0.8	-16.6%	-1.9
N#Cc1cccc(C(c2nnnn2C2CCCC2)N2CCC(Cc3ccccc3)CC2)c1 (configuration not stated)	-0.8%	4.9	?	1.0	-2.3%	17.2
CN(CC(=O)O)S(=O)(=O)c1ccc2oc3ccccc3c2c1	-0.7%	-0.4	-38.3%[inhibitor]	0.5	-8.2%	6.4
Cc1csc(SCC(=O)NC(=O)NC2CCCC2)n1	nt	-4.8	?	1.2	-0.4%	-15.5
CCOC(=O)c1c(NC(=O)CSc2nnc(-c3ccco3)o2)sc(C)c1C	-2.6%	8.2	-2.2%	0.6	6.4%	36.0
CCC(=O)N1c2ccccc2CC1C(=O)NCc1ccc(CC)cc1 (configuration not stated)	-1.0%	nt	nt	0.7	nt	-12.2
COc1cccc(N2CCN(C3CC(=O)N(c4ccc(C)c(Cl)c4)C3=O)CC2)c1 (configuration not stated)	-1.5%	4.8	10.2%	1.3	11.9%	4.2
O=C(NCCCO)/C(=C/c1ccco1)NC(=O)c1ccc(Br)o1	-1.0%	-11.7	-43.6%	0.6	6.2%	-6.5
Cc1ccc(S(=O)(=O)N2CCOCC2)cc1NC(=O)COC(=O)CCOc1ccc(C(C)(C)C)cc1	2.8%	nt	-0.2%[15.4 µM]	0.4	-7.9%	20.1
COc1cccc(CNC(=O)C2CCN(c3nnc(N4CCCC4=O)s3)CC2)c1	2.0%	-1.6	?	-0.6	4.4%	-6.0
COc1ccc2oc(C(=O)NCc3ccco3)c(C)c2c1	3.7%	nt	35.7%	-0.3	9.0%	-11.1
CN(CC(=O)OCC(=O)NCc1ccccc1)S(=O)(=O)c1ccc(F)cc1	0.1%	nt	-1.0%	-0.6	?	?
COc1cccc(CC(NC(C)=O)C(=O)NC2CCN(C(=O)Nc3ccc(C)cc3)CC2)c1 (configuration not stated)	nt	-0.9	11.9%[15.4 µM]	0.5	11.0%	1.0
COc1ccc(C(CNC(=O)c2ccco2)N2CCCC2)cc1 (configuration not stated)	-20.6%	nt	?	-0.7	11.5%	-7.7
COc1cccc(/C=N/NC(=O)c2cc(C34CC5CC(CC(C5)C3)C4)[nH]n2)c1	-1.6%	-4.6	-8.1%	1.6	-23.0%	2.8
CCC(CC)c1nnc(NC(=O)Cc2c[nH]c3ccccc23)s1	3.1%	nt	-1.0%	-1.0	nt	9.4
CC(C)N1CCC(N2CCN(Cc3ccc4nonc4c3)CC2CCO)CC1 (configuration not stated)	nt	-2.5	3.8%[15.4 µM]	0.7	5.2%	50.6
Cc1ccc(C)c(S(=O)(=O)N2CCN(C(=O)c3ccncc3)CC2)c1	-0.8%	nt	-16.3%	-0.2	-1.0%	9.1
O=C(N/N=C/c1ccncc1)c1cccc(S(=O)(=O)Nc2ccc(Cl)cc2)c1	0.2%	-0.2	?	nt	6.6%	nt
Cc1cccc(Cc2nnc(CCC(=O)N(C)C3CCOC3)o2)c1 (configuration not stated)	nt	-0.8	-13.5%	-0.8	7.5%	-15.4
O=C(CSc1nc2ccccc2c(=O)n1CCCN1CCOCC1)Nc1ccc(Br)cc1	nt	nt	-28.5%	0.9	-8.8%	23.0
O=C(CCC1CCCC1)NNC(=O)c1ccc(F)cc1	-1.7%	nt	-45.7%[inhibitor]	-0.1	1.4%	-11.6
Cc1ccc2c(CC(=O)Nc3ccc(S(=O)(=O)Nc4nc(C)cc(C)n4)cc3)coc2c1	-3.4%	nt	nt	-0.3	nt	-9.6
CCOC(=O)c1cnc2c(ccc3ccccc32)c1Nc1cccc(Cl)c1	-1.8%	nt	nt	-0.1	nt	2.9
O=C(c1cnc2ccc(Cl)cc2c1Cl)N1CCOCC1	0.4%	0.4	1.8%	0.4	0.0%	4.6
CC(C)C(NC(=O)c1ccccc1)C(=O)OCc1cc([N+](=O)[O-])cc2c1OCOC2 (configuration not stated)	-1.5%	0.1	-85.0%[inhibitor]	2.8	-14.6%	-7.2
O=C1NC(c2ccc(Cl)cc2)Oc2ccccc21 (configuration not stated)	-23.3%	-8.1	-6.9%	-0.4	5.8%	29.9
CCn1c(CC(=O)Nc2ccc(C)c(Cl)c2)nnc1SCCOc1ccc(OC)cc1	-2.5%	2.3	-21.2%	-0.6	-3.1%	44.0
Cc1noc(C)c1S(=O)(=O)N1CCCC(C(=O)NCCC2=CCCCC2)C1 (configuration not stated)	0.0%	3.2	-24.8%	-0.3	14.5%	-19.7
CCc1nn(C(CC)C(=O)NCCCc2ccccc2)c(=O)c2cc3occc3n12 (configuration not stated)	-7.3%	-2.4	22.4%	3.0	-13.9%	4.9
COc1ccccc1CCNS(=O)(=O)c1cc2c3c(c1)CCN3C(=O)CC2	0.7%	nt	-9.2%[15.4 µM]	0.2	-3.1%	1.2
Cc1c(F)cccc1NS(=O)(=O)c1ccc(N2CCCC2=O)cc1	nt	nt	11.3%[15.4 µM]	-0.7	9.7%	2.6
O=C(O)c1c[nH]c2c(C(F)(F)F)cccc2c1=O	-24.0%	-1.1	-10.2%	-0.8	?	3.0
Cc1ccc(-c2cc(C(=O)N/N=C/c3c(C)nn(-c4ccccc4)c3C)n[nH]2)s1	-20.3%	-0.4	14.8%	3.4	-22.4%	-12.1
CC(=O)Nc1ccc(NS(=O)(=O)c2ccccc2)cc1	0.9%	0.1	-8.7%	3.0	13.1%	-14.0
O=C(CSc1nc(=O)[nH]c2c1CCC2)NCc1ccc(Cl)cc1	-6.8%	nt	nt	-1.2	nt	-8.3
O=C(NCCNS(=O)(=O)c1ccccc1)c1ccc([N+](=O)[O-])cc1	-1.5%	-7.1	15.9%	1.0	-0.4%	6.2
COc1ccc(N2CCN(C(=O)C3CCN(S(=O)(=O)c4ccc(C)cc4)CC3)CC2)cc1	nt	1.6	-9.5%[15.4 µM]	-0.3	-3.5%	-10.9
CCOCCCNC(=O)c1ccc(/C=C2\Oc3ccccc3N(C)C2=O)cc1	-28.6%	-1.4	14.1%	-0.5	-16.0%	1.9
COC(=O)c1cc(S(=O)(=O)N2CCN(c3ccc(F)cc3)CC2)c[nH]1	1.1%	-2.6	5.7%	0.0	8.8%	27.4
C=CCNc1ncnc2ccc(Br)cc12	-7.9%	-0.8	?	-0.4	-9.3%	-11.3
Cc1cc(C)c2c(N)c(C(=O)NCC3CCCCC3)sc2n1	50.7%	0.8	?	1.7	-5.5%[15.4 µM]	-29.3
CCc1ccc(CC(=S)N2CCOCC2)cc1	0.0%	-1.9	6.1%	0.5	-0.8%	39.1
COCCn1c(=S)[nH]c2cc(C(=O)NCc3ccccc3)ccc2c1=O	-0.8%	nt	?	-0.5	nt	-0.5
CCn1c(N)c(C(=O)NCc2ccc3c(c2)OCO3)sc1=S	-2.7%	3.9	5.2%	-0.9	-4.0%	3.6
CCc1cc(C(=O)c2ccc(C)cc2)c(NC(=O)CCl)s1	0.7%	3.6	9.7%	1.0	-27.9%	1.3
CCC1CCCN1Cn1cnc2c([nH]c3ccc(C)cc32)c1=O (configuration not stated)	28.2µM*	2.1	0.4%[15.4 µM]	0.2	10.1%	64.9
CC(Sc1n[nH]c(N)n1)C(=O)Nc1cccc(S(=O)(=O)N2CCOCC2)c1 (configuration not stated)	nt	-0.3	-6.1%[15.4 µM]	2.4	7.5%	-7.1
Cc1ccc(OCC(=O)NC(C)c2ccccc2)cc1 (configuration not stated)	-2.4%	0.2	1.1%	0.9	-0.2%	17.0
Cc1ccc(C(=O)CCC(=O)Nc2ccccc2C)c(C)c1	nt	-3.9	-3.8%	1.0	1.5%	-12.3
COc1ccc(CCN2CC(C(=O)O)CC2=O)cc1OC (configuration not stated)	0.3%	0.1	13.5%	-0.6	-1.3%	-4.0
CC(C)COP(=O)(OCC(C)C)C(Nc1ccccc1)c1ccc2c(c1)OCO2 (configuration not stated)	16.2%	-1.2	-1.4%	0.9	-12.1%	9.2
Going on with the list.
SMILES	ClpP mod	Menin MLL FP FL	gsp agonist	TRPML1 ag	gsp antag	TRPML1 blocker
CCN(C[C@H]1N[C@@](C)(C(=O)OC)[C@H]2C(=O)N(C)C(=O)[C@@H]12)C(=O)C1CCCCC1	0.2%	nt	nt	1.4	9.6%	17.9
CN1CCN(c2nc3c(c(=O)[nH]c(=O)n3C)n2CCSc2nnnn2-c2ccccc2)CC1	1.9%	1.6	-9.6%	4.4	-8.5%	22.9
COc1cccc(/C=N/n2nnnc2N)c1OCc1ccccc1Cl	?	3.5	-29.9%	-0.5	0.0%	10.9
Oc1ccc2ccccc2c1C=NNc1ccccn1	-5.9%	nt	6.5%	1.8	-7.8%	-6.0
Cc1cccc(NC(=O)COC(=O)c2nn(C)c(=O)c3ccccc23)c1C	0.9%	nt	-7.9%[15.4 µM]	-0.3	10.9%	9.6
COC(=O)COc1ccc(C2C(C(=O)OC)=C(C)NC3=C2C(=O)c2ccccc23)cc1OC (configuration not stated)	-0.7%	nt	nt	-1.3	nt	-3.5
CC(C#N)Sc1ccc(S(=O)(=O)N(C)C2CCCCC2)cn1 (configuration not stated)	0.3%	nt	-3.0%	11.5	4.4%	-16.0
CCOc1ccc(N(CC(=O)Nc2ccccc2C(=O)NC(C)CC)S(C)(=O)=O)cc1 (configuration not stated)	-6.2%	2.0	-10.7%[15.4 µM]	-0.1	6.0%	2.4
COc1ccc(/C=C/c2nc(-c3ccccc3O)n[nH]2)cc1	5.6%	2.8	24.1%	-0.4	0.7%	-8.9

Bioassay records: PubChem, National Center for Advancing Translational Sciences (NCATS)
